# Screening data from PubChem.
# A1 inh: blocks A1 activity. MEF A1-2A-BIM cells, caspase-Glo luminescence, 3 h; percent of clofoctol signal, DMSO as zero. caspase activation, % (no concentration beside the values). actives 0.51% (n = 21,000);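 active = most replicate scores above 10, or exactly half above 10 with mean activity above 10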;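 also: effector caspase 3 and 7 activity cleaving a DEVD luciferin substrate; 50 nL library stock added to about 30 µL; numbers are from one replicate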
# BJeLR viab HTS: BJeLR cell viability reduction; BJeLR fibroblasts viability, CellTiterGlo ATP luminescence, 48 h; HRASV12, hTERT and SV40 LT/ST transformed; viability loss activity score, % (concentration not given with the values); actives 0.64% (n = 30,000); AID 2275; in the data active = viability loss activity score above about 50%; about a fifth of its hits are not listed in these tables;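 also: higher score means fewer live cells and less ATP luminescence; stock transfer was 50 or 100 nL into about 30 µL; 0% = vehicle wells and 100% = a reference killing control; one replicate is shown; the record names a cut of 85%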
# The depositor's hits bear a star; . = no result given. An excerpt (hit frequency here may not be typical).
SMILES,A1 inh,BJeLR viab HTS
C[C@@H]1CN([C@@H](C)CO)C(=O)c2cc(NC(=O)Cc3cn(C)c4ccccc34)ccc2O[C@@H]1CN(C)Cc1ccncc1,-0.3,0.2
CCCc1nc(N)c(C#N)c(-c2ccccc2)c1CC,1.1,3.5
Cc1nn(Cc2nnc(-c3cc(C(F)(F)F)cc(C(F)(F)F)c3)o2)c(C)c1Br,-0.1,0.3
C[C@@H]1CN([C@@H](C)CO)C(=O)c2cc(NC(=O)Nc3ccc(C(F)(F)F)cc3)ccc2O[C@@H]1CN(C)Cc1ccc(C(F)(F)F)cc1,-1.7,4.8
C[C@H](CO)N1C[C@H](C)[C@@H](CN(C)C(=O)Nc2ccc(C(F)(F)F)cc2)Oc2c(NC(=O)c3ccc(-c4nccs4)cc3)cccc2C1=O,.,-5.3
Cc1ccc(CNC(=O)[C@@H](c2ccccc2)N2Cc3ccccc3C2=O)cc1,.,-7.1
CCOc1ccc(NC(=O)CN(Cc2ccccc2)S(=O)(=O)c2ccc(C)cc2)cc1,0.3,1.4
C[C@H](CO)N1C[C@H](C)[C@@H](CN(C)C(=O)Nc2ccccc2)Oc2ccc(NS(=O)(=O)c3cn(C)cn3)cc2C1=O,-0.2,-0.4
C[N+]12CCCCC1C(CN1C(=O)c3ccccc3C1=O)CCC2 (stereo unspecified),0.3,4.3
N=c1n(CC(=O)c2ccco2)c2ccccc2n1Cc1ccccc1,-1.0,5.9
CCOC(=O)CSc1nc(Nc2ccc(OC)cc2)c2cnc(N(CC)CC)nc2n1,-0.3,-2.2
O=[n+]1c(CO)c(CO)n([O-])c2ccccc21,-0.3,-3.0
COc1ccc(S(=O)(=O)N(C)C[C@H]2Oc3c(NS(=O)(=O)c4ccc(F)cc4)cccc3C(=O)N([C@H](C)CO)C[C@H]2C)cc1,.,-2.2
Cc1noc(C)c1NC(=O)Nc1cccc2c1O[C@@H](CN(C)C(=O)NC1CCCCC1)[C@H](C)CN([C@H](C)CO)C2=O,.,-6.2
C[C@@H]1CN([C@@H](C)CO)C(=O)c2cccc(NC(=O)Nc3ccccc3)c2O[C@H]1CN(C)C(=O)Nc1ccccc1,.,-3.0
Cc1c(C(=O)N(C)C)sc2[nH]c(=O)n(-c3ccccc3C(F)(F)F)c(=O)c12,.,-1.6
Cc1nn(-c2ccccc2)c(N)c1C(NC(=O)c1ccccc1)(C(F)(F)F)C(F)(F)F,.,-4.6
N#CNC(=NC1CCCCC1)NC1CCCCC1,0.5,-1.2
CCOC(=O)N1CCC(NC(=O)CCCC(=O)O)CC1,-0.4,-3.1
N#Cc1c(C(F)(F)F)cc(-c2cccs2)nc1S/C=C/C(=O)c1ccccc1,0.1,57*
C[C@H](CO)N1C[C@H](C)[C@H](CN(C)S(=O)(=O)c2ccccc2)Oc2ccc(NC(=O)Nc3ccc4c(c3)OCO4)cc2C1=O,0.3,0.4
Cc1ccc(S(=O)(=O)N(C)C[C@H]2Oc3ccc(NC(=O)C4CCCCC4)cc3C(=O)N([C@H](C)CO)C[C@H]2C)cc1,0.6,12
O=C(CSc1nc2ccccc2s1)NC1CCCCC1,0.9,8.0
O=C(c1cccs1)N1CCCn2c(SCc3ccccc3)nnc21,-0.1,9.1
C[C@@H]1CN([C@H](C)CO)C(=O)c2cccc(NC(=O)Nc3cccc4ccccc34)c2O[C@@H]1CN(C)C(=O)NC1CCCCC1,.,-2.7

# More structures.
SMILES,A1 inh,BJeLR viab HTS
C[C@H](CO)N1C[C@H](C)[C@@H](CN(C)C)Oc2ccc(NC(=O)NC3CCCCC3)cc2C1=O,0.4,-8.4
C[C@H]1CN([C@@H](C)CO)C(=O)c2cc(NC(=O)Nc3ccc(C(F)(F)F)cc3)ccc2O[C@@H]1CN(C)C(=O)Nc1cccc2ccccc12,1.0,-0.5
COc1cccc2cc(-c3csc(Nc4cccc(C(F)(F)F)c4)n3)c(=O)oc12,-0.8,3.7
CC1=CCC[C@@H]2[C@@](C)(CCc3ccoc3)[C@H](C(=O)O)CC[C@@]12C,0.2,-4.0
CC(C)CN(CC(C)C)c1ncnc2c1cnn2-c1ccc(Cl)cc1,-0.1,3.1
COc1ccc(S(=O)(=O)N(C)C[C@@H]2Oc3ccc(NC(=O)Nc4ccccc4)cc3C(=O)N([C@H](C)CO)C[C@H]2C)cc1,-0.3,1.6
C[C@H](CO)N1C[C@H](C)[C@@H](CN(C)Cc2ccncc2)Oc2ccc(NC(=O)NC3CCCCC3)cc2C1=O,-0.1,1.9
Cc1ccc(SC(C)C(=O)Nc2ccc(C(C)(C)C)cc2)cc1 (stereo unspecified),0.6,1.6
CNC[C@H]1Oc2ccc(NS(C)(=O)=O)cc2C(=O)N([C@H](C)CO)C[C@@H]1C,-0.2,-4.9
C[C@@H]1CN([C@H](C)CO)C(=O)c2cccc(NS(=O)(=O)c3cccs3)c2O[C@H]1CN(C)Cc1ccc(Oc2ccccc2)cc1,.,-4.3
O=C1NCCN1CCN1C(=O)c2ccccc2NC1c1ccccc1 (stereo unspecified),1.5,-4.5
C[C@H]1CN([C@@H](C)CO)C(=O)c2cc(NC(=O)CCN3CCOCC3)ccc2O[C@@H]1CN(C)C(=O)NC1CCCCC1,-0.7,3.0
CNC[C@@H]1Oc2c(NS(=O)(=O)c3ccc(C)cc3)cccc2C(=O)N([C@H](C)CO)C[C@H]1C,.,1.1
CN(CC(=O)C1=C(c2ccc(Br)cc2)C(=O)c2ccccc2C1=O)c1ccccc1,-1.0,3.5
CCOc1ccc(C(=O)/C=C2/NCCNC2=O)cc1,-4.0,-7.5
NC(=NCc1ccc(Cl)cc1Cl)NC(=O)c1nc(Cl)c(N)nc1N,0.1,2.5
CCOc1ccccc1CN1C(=O)c2ccccc2C1C(=O)NCCCN1C(C)CCCC1C (stereo unspecified),0.1,-6.1
Cc1ccc(S(=O)(=O)Nc2ccc3c(c2)C(=O)N([C@@H](C)CO)C[C@@H](C)[C@@H](CN(C)CC2CCCCC2)O3)cc1,-0.2,2.0
CC(C)NC(=O)Nc1cccc2c1O[C@H](CN(C)Cc1ccc(C(F)(F)F)cc1)[C@H](C)CN([C@H](C)CO)C2=O,.,6.0
COc1ccc(CCNC(=O)c2cc(C)no2)cc1OC,.,0.9
CC1=NNC(=O)C1Oc1ccc(Cl)cc1Cl (stereo unspecified),-0.5,-2.8
C[C@H](CO)N1C[C@H](C)[C@@H](CN(C)Cc2ccc3c(c2)OCO3)Oc2ccc(NC(=O)CCN3CCOCC3)cc2C1=O,0.3,0.3
CCC1(C)Nc2ccccc2-c2nc3ccccc3n21 (stereo unspecified),.,1.4
Cc1oc(-c2ccc(Cl)cc2)cc1-c1nn2c(-c3ccco3)nnc2s1,.,4.1
Cc1ccc2[nH]c(=O)c3cc(C(=O)NCCN(C)Cc4ccccc4)sc3c2c1,1.2,2.7

# Filtered by structure: the entries above containing a furan ring, fused or not.
SMILES,A1 inh,BJeLR viab HTS
N=c1n(CC(=O)c2ccco2)c2ccccc2n1Cc1ccccc1,-1.0,5.9
CC1=CCC[C@@H]2[C@@](C)(CCc3ccoc3)[C@H](C(=O)O)CC[C@@]12C,0.2,-4.0
Cc1oc(-c2ccc(Cl)cc2)cc1-c1nn2c(-c3ccco3)nnc2s1,.,4.1

# Rewritten with two lines to a compound: part of the list above
# Order of values: A1 inh | BJeLR viab HTS
- C[C@H]1CN([C@@H](C)CO)C(=O)c2cc(NC(=O)Nc3ccc(C(F)(F)F)cc3)ccc2O[C@@H]1CN(C)C(=O)Nc1cccc2ccccc12
→ 1.0 | -0.5
- COc1cccc2cc(-c3csc(Nc4cccc(C(F)(F)F)c4)n3)c(=O)oc12
→ -0.8 | 3.7
- CC1=CCC[C@@H]2[C@@](C)(CCc3ccoc3)[C@H](C(=O)O)CC[C@@]12C
→ 0.2 | -4.0
- CC(C)CN(CC(C)C)c1ncnc2c1cnn2-c1ccc(Cl)cc1
→ -0.1 | 3.1
- COc1ccc(S(=O)(=O)N(C)C[C@@H]2Oc3ccc(NC(=O)Nc4ccccc4)cc3C(=O)N([C@H](C)CO)C[C@H]2C)cc1
→ -0.3 | 1.6
- C[C@H](CO)N1C[C@H](C)[C@@H](CN(C)Cc2ccncc2)Oc2ccc(NC(=O)NC3CCCCC3)cc2C1=O
→ -0.1 | 1.9

# (more compounds)
SMILES,A1 inh,BJeLR viab HTS
Cc1noc(C)c1NC(=O)N(C)C[C@H]1Oc2ccc(NS(C)(=O)=O)cc2C(=O)N([C@@H](C)CO)C[C@@H]1C,-0.5,0.8
CCCNC(=O)Cn1c2ccccc2c2nc(=O)cc(C)n21,0.0,1.0
Cc1noc(C)c1NC(=O)Nc1ccc2c(c1)C(=O)N([C@H](C)CO)C[C@@H](C)[C@H](CN(C)S(=O)(=O)c1ccc(F)cc1)O2,0.7,1.1
Cc1cc(C)nc(NS(=O)(=O)c2ccc(Br)cc2)n1,0.3,4.9
COc1cccc(NCc2cn(-c3ccccc3)nc2-c2cccs2)c1,-6.5,23
Cc1ccc(S(=O)(=O)N(C)C[C@H]2Oc3c(NC(=O)c4ccncc4)cccc3C(=O)N([C@H](C)CO)C[C@@H]2C)cc1,.,1.6
CCOC(=O)c1cnn2c(N)c(C#N)cnc12,-0.2,-2.1
NNC(=O)CCc1ccccc1,-0.2,-1.5
CC(C)NC(=O)N(C)C[C@H]1Oc2ccc(NS(=O)(=O)c3ccccc3)cc2C(=O)N([C@H](C)CO)C[C@H]1C,1.4,-2.6
C[C@@H]1CN([C@H](C)CO)C(=O)c2cc(NC(=O)Nc3cccc4ccccc34)ccc2O[C@H]1CN(C)Cc1ccc(Cl)c(Cl)c1,-0.1,1.6
O=C(OCC1CC(c2ccccc2)=NO1)c1cccc(C(=O)OCC2CC(c3ccccc3)=NO2)n1 (stereo unspecified),0.5,-6.2
COc1ccc(S(=O)(=O)N(C)C[C@H]2Oc3ccc(NC(=O)NC4CCCCC4)cc3C(=O)N([C@H](C)CO)C[C@@H]2C)cc1,0.2,-2.3
Cc1noc(C)c1NC(=O)N(C)C[C@H]1Oc2ccc(NC(=O)Cc3cn(C)c4ccccc34)cc2C(=O)N([C@@H](C)CO)C[C@H]1C,0.6,3.4
C[C@H](CO)N1C[C@H](C)[C@H](CN(C)Cc2ccc3c(c2)OCO3)Oc2ccc(NC(=O)Cc3ccccc3)cc2C1=O,0.3,3.5
C[C@@H]1CN([C@H](C)CO)C(=O)c2cc(NC(=O)Nc3ccccc3)ccc2O[C@@H]1CN(C)S(=O)(=O)c1ccc(Cl)cc1,-0.1,2.4
COc1ccc(NC(=O)Cn2ccc3ccccc3c2=O)cc1OC,.,0.1
Cc1noc(C)c1NC(=O)N(C)C[C@H]1Oc2ccc(NC(=O)CCN3CCOCC3)cc2C(=O)N([C@H](C)CO)C[C@@H]1C,0.4,5.8
CCN(CC)CCCNc1nc(Cl)nc(Nc2ccc(F)cc2F)n1,0.4,4.4
NC1=NC(=O)C(CC(=O)Nc2ccccc2)S1 (stereo unspecified),.,-3.8
C[C@H](CO)N1C[C@H](C)[C@@H](CN(C)Cc2ccc(C(=O)Nc3ccccc3N)cc2)Oc2ccc(NS(=O)(=O)c3ccc(Cl)cc3)cc2C1=O,.,4.3
OC(COc1ccc(Br)cc1)CN1CCCN(c2nc3ccc(Cl)cc3s2)CC1 (stereo unspecified),.,2.0
Cc1cccc(N(C)S(=O)(=O)c2ccc3c(c2)OCC(=O)N3)c1,0.0,-2.0
Cc1cc(C(=O)Nc2cccc3c2O[C@@H](CN(C)C(=O)Nc2ccc4c(c2)OCO4)[C@@H](C)CN([C@H](C)CO)C3=O)n(C)n1,.,1.8
COc1ccc(C2CC(=O)c3ccccc3O2)cc1 (stereo unspecified),-1.8,-8.0
Cc1nn(CC(O)c2ccccc2)c(C)c1Br (stereo unspecified),-2.0,5.1
